Compound activity: PubChem, Center for Chemical Genomics, University of Michigan
TAR Tat displ = HIV-1 TAR-Tat binding disruption. z-score (concentration not given with the values). actives 0.6% (n = 100,000). HIV-1 TAR RNA, Tat peptide displacement FRET; hits give high values;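 also: score is relative to mean and SD of negative controls; some compounds called inactive have numbers as strong as hits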
CDC25B CDK2 inh = human CDC25B-CDK2/CyclinA binding inhibition; P30305+P24941; HTRF CDC25B-CDK2/CyclinA binding, anti-His/anti-Flag; hits give high values; z-score (test concentration not listed); actives 0.72% (n = 94,000);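 also: score is relative to mean and SD of negative controls; strong numbers were not always called active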
Numbers without * were called inactive; · = no result given.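 The calls were made as follows: active = z-score from 3 up in half or more of its runs; inactive = the rest.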

mol | TAR Tat displ | CDC25B CDK2 inh
CC1=C(C(=O)OCC2CCCO2)C(c2cccc(Oc3ccccc3)c2)C2=C(CCCC2=O)N1 (centres undefined) | 0.43 | -0.18
O=C(O)C(CSCc1ccccc1)N1Cc2ccccc2C1=O (centres undefined) | 0.04 | -0.81
Cc1ccccc1C(=O)CC1(O)C(=O)Nc2ccccc21 (centres undefined) | 1 | ·
CC1(C)CC(=O)C(C=NC2CC(C)(C)NC(C)(C)C2)=C(O)C1 | · | -3.2
COC(=O)c1cnn(-c2ccccc2)c1/C=N/OC(=O)c1ccc(Cl)cc1 | · | -2.1
COc1cccc(/C=N/NC(=O)c2ccncc2)c1OC | · | -0.5
Cc1ccc(-c2cnnc(-c3ccc(Cl)cc3)n2)cc1 | 0.04 | -0.62
c1ccc(-c2cn3c(n2)CCC3)cc1 | 1.8 | -2.8
Cc1cccc(N2CCN(S(=O)(=O)c3c(C)nc4scc(C)n4c3=O)CC2C)c1 (centres undefined) | -0.46 | -2
Cc1ccn2c(=O)c(C(=O)NCCO)c(O)nc2c1 | 0.29 | -0.59
O=C(c1c2c(nc3ccccc13)C(=O)N(C1CCCCC1)C2)N1CCN(c2ccccc2)CC1 | -0.23 | ·
CCN(CCNC(=O)CCCn1nc(C)n2c(cc3sccc32)c1=O)c1ccccc1 | 1.2 | -1.5
COc1ccc(-c2nnc3c4cc(OC)ccc4n(Cc4cccc(OC)c4)cc2-3)cc1 | 0.19 | -0.6
COc1ccc(C(=O)CSc2n[nH]c(C)n2)cc1C | 1.4 | -1.2
CCC(C(=O)NCc1ccco1)N1C(=O)CCn2nc(C)cc21 (centres undefined) | 0.66 | ·
Cc1ccc2nc(-n3nc(C)c4c3NC(=O)CC4c3ccncc3)sc2c1 (centres undefined) | 0.86 | ·
O=C(Cn1c(=O)oc2cc(S(=O)(=O)N3CCCC3)ccc21)N1CCCc2ccccc21 | -0.57 | 0.1
CCc1ccc(-n2nc(C)c3c(C)cc(=O)n(CCc4c(C)noc4C)c32)cc1 | 0.05 | ·
CC1Sc2ccc(S(=O)(=O)NC3CCCCC3)cc2NC1=O (centres undefined) | 2.3 | ·
COc1ccc(-c2cc(-c3nc(-c4ccc(Br)cc4)no3)[nH]n2)c(OC)c1 | 1.3 | ·
CCOC(=O)C1=C(c2ccccc2)NC(SCC(N)=O)=C(C#N)C1c1ccccc1 (centres undefined) | 1 | 0.16
COc1ccc(Cl)cc1NC(=O)Cn1nc2c(cc1=O)CCC2 | -1 | -1.3
CCSc1nnc2c(n1)OC(c1ccccc1C)N(C(C)=O)c1ccccc1-2 (centres undefined) | -0.05 | 0.03
COc1ccc(-c2nnc(-c3cc(OC)c(OC)c(OC)c3)o2)cc1OC | · | -0.71
CCC(C)OC(=O)C(C)Oc1ccc2c(=O)c(-c3ccccc3Cl)coc2c1 (centres undefined) | -0.93 | -1.9
Cc1cc(C)n(C(=O)c2cc(-c3ccccc3)nc3ccccc23)n1 | · | -6.2
CN(CC(=O)N1CCN(C2CCCC2)CC1)S(=O)(=O)c1ccc2c(c1)c(=O)n(C)c(=O)n2C | 0.79 | -1.6
O=C(Nc1cccc(F)c1)c1cnn(-c2ccc(F)cc2)c1-n1cccc1 | 0.42 | ·
CCOc1ccc(NC(=O)N2CCN(c3cc(N(C)C)nc(C)n3)CC2)cc1 | 0.62 | -0.71
Cc1cc(=O)nc2c3ccccc3n(CC(=O)NC3CCCC(C)C3C)n12 (centres undefined) | -3.3 | -0.42
COc1ccc(OC)c(-c2noc(CSc3nnc(-c4ccncc4)n3-c3ccc(C)cc3)n2)c1 | 0.15 | 1.3
COC(=O)c1cc(C)nc2c1c(=O)nc(SCc1ccc(C)cc1)n2C1CC1 | -0.07 | ·
CCCCc1ccc(N2CCn3c2nc2c3c(=O)n(CC(=O)O)c(=O)n2C)cc1 | 0.08 | 0.74
c1ccc(C2OCC3(CO2)COC(c2ccccc2)OC3)cc1 (centres undefined) | · | -0.95
Cc1nc(-c2cccs2)c(CC(=O)N2C[C@H](C)C[C@H](C)C2)s1 | -1.7 | -1.6
COc1ccc(-c2cc(C)no2)cc1S(=O)(=O)N1CCOc2ccccc21 | 1 | ·
O=C(Nc1ncc(Cc2ccccc2)s1)c1cc2ccccc2c(=O)s1 | -0.89 | -2.4
Cc1occc1C(=O)C(C#N)=C1SCCCCS1 | · | -1.1
CNC(=O)Nc1ccc(C2CC2(Cl)Cl)cc1 (centres undefined) | · | -1.9
COc1cc(Br)cc2c1OC1(C)CC2NC(=S)N1c1ccccc1 (centres undefined) | · | -0.77
CC(C)CCNC(=O)C1CCN(C(=O)c2cc3sccc3n2Cc2ccc(F)cc2)CC1 | · | -1.2
Cc1nn(-c2nncc(-c3ccccc3)n2)c2c1C(c1ccsc1)CC(=O)N2 (centres undefined) | 2.1 | 0.91
COc1ccc2c(c1OC)C(=O)OC2CC(=O)c1ccc(C)cc1 (centres undefined) | 1.6 | -0.56
O=C(NO)C12CCC(CC1)C2 | · | -1.2
O=C(CCc1nnc2ccc(N3CCCCC3)nn12)N1CCc2ccccc2C1 | -0.65 | ·
CCCC(=O)N1c2cc(C)ccc2C(=C2SC(C(=O)OC)=C(C(=O)OC)S2)C(=S)C1(C)C | 3 | -0.67
CCCC(NC(=O)C1CCN(c2ccc(-c3cccs3)nn2)CC1)c1cccs1 (centres undefined) | -0.73 | ·
Cc1c(Cl)cccc1Nc1nc2ccccc2c2nncn12 | 2.1 | ·
CN(C(=O)C(=O)Nc1ccc2nc3n(c(=O)c2c1)CCCCC3)c1ccc(F)cc1 | -0.16 | -1.8
CCCC(=O)N1CC2(C(C)C)CN(C(=O)CCC)CC(C(C)C)(C1)C2=O | -0.74 | -1.5

Complete entries, quoted from the list. Order of screens: TAR Tat displ	CDC25B CDK2 inh
Profile of CCOC(=O)C1=C(c2ccccc2)NC(SCC(N)=O)=C(C#N)C1c1ccccc1 (centres undefined) : 1	0.16
Profile of Cc1nn(-c2nncc(-c3ccccc3)n2)c2c1C(c1ccsc1)CC(=O)N2 (centres undefined) : 2.1	0.91

Other compounds.
mol | TAR Tat displ | CDC25B CDK2 inh
COc1ccc(CC(=O)Nc2ccccc2N2CCCCC2)cc1OC | · | -0.32
COC(=O)c1ccc(C2C(C(=O)OCc3ccc(OC)cc3)=C(C)NC3=C2C(=O)CC(C)(C)C3)cc1 (centres undefined) | -1.4 | -1.7
Cc1ccc2oc(C(=O)Nc3sc4c(c3C(=O)NCC3CCCO3)CCCC4)cc(=O)c2c1 (centres undefined) | -2.5 | -2.6
COc1ccccc1N1CCN(CCCCOc2ccc(F)cc2)CC1 | · | -0.23
COc1ccc(/C(C)=N/OC(=O)c2cc(OC)c(OC)c(OC)c2)cc1CSc1ccccn1 | · | -1.6
O=S(=O)(c1ccc2c(c1)NCCS2)N1CCc2ccccc2C1 | 1.5 | ·
CCc1ccc(CN(C(=O)c2cc(=O)c3c(C)cc(C)cc3o2)C2CCS(=O)(=O)C2)cc1 (centres undefined) | 1.2 | -0.96
CCN1CCN(Cc2c(C)[nH]c3ccc(OC)cc3c2=O)CC1 | 0.08 | -0.74
O=C(O)/C=C/c1ccc(O)c(O)c1 | 5.3 | -1.6
Cc1ccc(C2c3c(oc4ccc(C)cc4c3=O)C(=O)N2CCCn2ccnc2)cc1 (centres undefined) | 0.65 | -1.8
O=C(O)c1ccc(-n2nnnc2SCCc2ccccc2)cc1 | 2 | ·
CSc1ncc(Cl)c(C(=O)Nc2sc3c(c2C(=O)NCc2cccnc2)CCCC3)n1 | -2 | 1.6
Cc1cc(C)cc(OCC(=O)c2ccc(O)cc2O)c1 | 1.1 | 0.24
CCC(CC)c1nc2ccccc2c(=O)[nH]1 | · | 0.67
Cc1nn2c(=O)c(NC(=O)c3ccc(F)cc3)cnc2s1 | -1.9 | -0.93
CCCC(=O)Nc1ccc2nc(SCc3cc(=O)n4c(C)csc4n3)sc2c1 | -0.14 | ·
O=c1[nH]c2ccccc2nc1Cc1ccccc1F | 1.3 | 0.37
Cc1ccc(S(=O)(=O)c2nnn3c2nc(NCc2ccc4c(c2)OCO4)c2sccc23)cc1C | -0.14 | ·
O=C1NC2(CCCCC2)N=C1c1ccc(F)cc1 | · | -0.42
O=C(CCCn1sc2ccccc2c1=O)NCCCc1ccccc1 | 2.5 | -1.6
O=C(Nc1ccc2oc(-c3c(F)c(F)c(F)c(F)c3F)nc2c1)c1ccc(Cl)cc1 | · | -1.8
CCOC(=O)c1cnc(SCC(=O)NC(C)C)nc1N | -0.49 | ·
Cc1cccc(-n2cc(-c3ccccc3)c3c(N4CCCC4)ncnc32)c1 | · | -1.9
COc1ccc(N2C(=O)c3c(c4ccccc4n3C)C2c2cc(OC)c(OC)cc2OC)cc1 (centres undefined) | · | -1
CCC(C)NC(=O)Cn1nc(C)c2sc3ccccc3c2c1=O (centres undefined) | 1.9 | -2.1
O=C(Nc1ccc(F)cc1F)c1noc2c1CSc1ccccc1-2 | 1.1 | -1.7
Cn1c(SCc2ccc(Br)cc2)nnc1-c1ccc2c(c1)OCCCO2 | 1.9 | ·
Cc1cc(C(=O)Nc2c(F)cc(F)cc2Br)n(-c2ccccc2)n1 | · | -0.59
COc1ccc(NS(=O)(=O)c2ccc3c(c2)[C@@H]2C=CC[C@@H]2[C@H](c2ccccc2)N3)cc1 | · | -0.96
COc1ccccc1C1C(C(=O)OC2CCCC2)=C(C)NC2=C1C(=O)CC(c1ccccc1)C2 (centres undefined) | 1.4 | 0.38

As entered above.
Under CDC25B CDK2 inh, `O=C(Nc1ccc2oc(-c3c(F)c(F)c(F)c(F)c3F)nc2c1)c1ccc(Cl)cc1` is listed with -1.8
Under TAR Tat displ, `O=C(Nc1ccc(F)cc1F)c1noc2c1CSc1ccccc1-2` is listed with 1.1
Under CDC25B CDK2 inh, `COc1ccc(N2C(=O)c3c(c4ccccc4n3C)C2c2cc(OC)c(OC)cc2OC)cc1` (centres undefined) is listed with -1
Under CDC25B CDK2 inh, `COc1ccccc1C1C(C(=O)OC2CCCC2)=C(C)NC2=C1C(=O)CC(c1ccccc1)C2` (centres undefined) is listed with 0.38
Under CDC25B CDK2 inh, `Cc1cccc(-n2cc(-c3ccccc3)c3c(N4CCCC4)ncnc32)c1` is listed with -1.9
Under TAR Tat displ, `CCOC(=O)c1cnc(SCC(=O)NC(C)C)nc1N` is listed with -0.49
Under TAR Tat displ, `Cn1c(SCc2ccc(Br)cc2)nnc1-c1ccc2c(c1)OCCCO2` is listed with 1.9

Later entries.
mol | TAR Tat displ | CDC25B CDK2 inh
CCSCCOC(=O)C1=C(C)NC2=C(C(=O)CCC2)C1c1ccc(C(=O)OC)cc1 (centres undefined) | 1.7 | -1
CCOC(=O)N1CCN(C(=O)[C@H]2[C@@H]3C[C@@H]4[C@H]2C(=O)O[C@@H]4C3)CC1 | 2.3 | -1.5
O=S(=O)(c1ccc(Cl)cc1)c1nc(-c2cccs2)oc1N1CCOCC1 | -0.62 | -1.3
CCn1c(SCCO)nc2c(c1=O)C1(CCCCC1)Cc1ccccc1-2 | 1.3 | -0.82
CC1=C(c2ccccc2)S(=O)(=O)NC1=NCc1ccccc1F | -1.3 | -2.7
COc1cccc(C2Oc3c(OC)cccc3C3CC(c4cccs4)=NN32)c1 (centres undefined) | · | -2.5
O=C(CSc1nnc(Cn2nc(-c3ccccc3)ccc2=O)o1)N1CCOCC1 | -0.15 | ·
CCOc1cccc(C2Nc3ccc(C)cc3-c3cc(C)nn32)c1O (centres undefined) | 0.37 | 0.68
Cc1cc(-c2ccc(S(=O)(=O)Nc3ccc(F)cc3F)s2)n[nH]1 | 1.4 | ·
CC(C)NC(=O)Cn1ncc2c1-c1ccccc1OC2 | 0.54 | -1.5

Reformatted: 2 of the compounds above.
> Cc1nn2c(=O)c(NC(=O)c3ccc(F)cc3)cnc2s1
  TAR Tat displ = -1.9	CDC25B CDK2 inh = -0.93

> CC1=C(c2ccccc2)S(=O)(=O)NC1=NCc1ccccc1F
  TAR Tat displ = -1.3	CDC25B CDK2 inh = -2.7

The results go on.
mol | TAR Tat displ | CDC25B CDK2 inh
O=C(Cn1c(=O)c2ccccc2n2nncc12)Nc1ccc(Br)cc1 | 1.2 | 0.3
CC[n+]1c(/C=C/c2ccc(N(C)C)cc2)ccn1-c1ccccc1 | -9.9 | -5.7
Cc1ccccc1NC(=O)NCc1ccc2c(c1)CCO2 | · | -0.15
Fc1cccc(Cl)c1Cc1nn[nH]n1 | 1.4 | -0.62
CSc1ccc(C2C(C#N)=C(N)OC3=C2CCc2ccccc23)cc1 (centres undefined) | · | 7.5*
COCCCn1c(-c2ccc(F)cc2)n[nH]c1=S | · | 1.1
Cc1ccc(Cl)cc1-n1ncc2c(NCc3ccc4c(c3)OCO4)ncnc21 | -0.15 | ·
Cc1ccc(S(=O)(=O)NC(C)c2nc(-c3ccccc3Cl)no2)cc1 (centres undefined) | 0.88 | -0.92
COc1ccc(-c2csc3ncnc(NCC4CCCO4)c23)cc1 (centres undefined) | 1.8 | ·
Cn1cc(C2CC(=O)N(c3ccccc3)C2=O)c2ccccc21 (centres undefined) | -2.5 | -2.2
N#Cc1c(SCC(=O)NCC2CCCO2)nc2c(c1-c1ccco1)CC/C2=C/c1ccco1 (centres undefined) | 20* | ·
Cc1ccc(N2C(=O)CSC23C(=O)Nc2ccc(Br)cc23)cc1 (centres undefined) | · | -2.3
CCCC(=O)N(c1ccc2oc(=O)sc2c1)S(=O)(=O)c1ccc(F)cc1 | -0.29 | -3.1
CCCN(CCC)CCNc1ncnc2onc(-c3cccc(Cl)c3)c12 | -0.31 | ·
COc1cc2c(cc1OC)C(C(=O)O)C(c1cc(OC)c(OC)c(OC)c1)N(C)C2=O (centres undefined) | · | 0.49
CCOCCOC(=O)CSc1ncnc2sc(C)c(C)c12 | -3.6 | -0.95
CCOc1ccc(CNCCCSc2nnnn2C)cc1 | 0.88 | -0.93
O=C(CC1Oc2ccccc2NC1=O)NCCCN1CCCC1=O (centres undefined) | 0.46 | -2.4
CCc1ccc(-c2cc(C)no2)cc1S(=O)(=O)NCc1ccc(C)cc1 | 2.4 | ·
Cn1c2c(c(=O)n(C)c1=O)C(c1cccc(Cl)c1)C1C(=O)c3ccccc3C1=N2 (centres undefined) | -0.86 | -1.8

This is a random part of the collection; about 0.87% have a hit in one of these screens.
